High-throughput results as filed in PubChem BioAssay.
VDR inhibitor: Inhibitors of the vitamin D receptor (VDR): qHTS; Potency, µM, for the others: max response, negative = inhibition, most hits filed as inhibitors; 400,000 compounds, 0.93% hits; AID 504847, 2011; VDR-SRC2-3 peptide fluorescence polarization, 2 h; Vitamin D3 receptor (Homo sapiens), P11473; active means well fitted inhibition curve with a large enough effect; inconclusive means small, poorly fitted or top-dose-only effect, or another doubt; inactive means no such curve, though single readings can be large or run the other way; further: series mostly up to about 120 µM
Target sequence (P11473 whole entry, looked up): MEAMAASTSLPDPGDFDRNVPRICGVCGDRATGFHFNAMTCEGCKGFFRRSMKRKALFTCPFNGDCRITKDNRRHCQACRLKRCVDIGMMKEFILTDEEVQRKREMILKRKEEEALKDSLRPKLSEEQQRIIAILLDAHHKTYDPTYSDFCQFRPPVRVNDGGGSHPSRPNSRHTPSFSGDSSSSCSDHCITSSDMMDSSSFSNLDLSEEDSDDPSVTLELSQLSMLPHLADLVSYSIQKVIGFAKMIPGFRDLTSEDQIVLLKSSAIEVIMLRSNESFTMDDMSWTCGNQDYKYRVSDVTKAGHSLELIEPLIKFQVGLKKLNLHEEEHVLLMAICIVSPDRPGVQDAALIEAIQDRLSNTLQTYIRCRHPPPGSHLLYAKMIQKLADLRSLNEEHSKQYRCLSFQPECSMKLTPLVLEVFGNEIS
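FP read-out; VDR + SRC2-3 coactivator peptide; 23 nl compound by pintool; 2 h RT incubation; reagents held at 4 deg C, protected from light.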
* = called active by the depositor; u = inconclusive. On the % scale 0 is the no-effect control and ±100 the full control effect; potency means the concentration at half of the fitted maximal effect.

entry | compound | VDR inhibitor
1 | CCCC12CN3CC(C)(CN(C1)C3c1ccc([N+](=O)[O-])o1)C2=O (stereo not drawn) | -9%
2 | COc1ccc(C2C=C(c3ccccc3)Nc3nc(NS(=O)(=O)c4ccccc4)nn32)cc1 (stereo not drawn) | 2%
3 | O=c1c2ccccc2nnn1Cc1nnc(-c2ccccc2Br)o1 | 1%
4 | COC(=O)c1ccc(CN(C(C)=O)c2ccccc2)o1 | u
5 | CSCCC(=O)Nc1cc(S(=O)(=O)N2CCOCC2)ccc1N1CCN(C)CC1 | 14%
6 | O=C(NCC1CCCO1)c1cc(S(=O)(=O)N2CCOCC2)c(Cl)cc1Cl (stereo not drawn) | 0%
7 | Cc1cccc(N2CCN(c3cc(C)nc4c(-c5ccc(Cl)cc5)c(C)nn34)CC2C)c1 (stereo not drawn) | 0%
8 | COc1ccc2[nH]c(C(=O)c3ccccc3)cc2c1 | 1%
9 | O=C(CCNS(=O)(=O)c1ccc(Br)cc1)N1CCN(c2ccccc2O)CC1 | -4%
10 | C/C(=N\NC(=O)Nc1ccccc1)c1ccccc1 | -6%
11 | COc1ccc(N2CCN(S(=O)(=O)c3ccc(CC(C)C)cc3)CC2)cc1 | -4%
12 | CSc1ccc(CN(C)CC(=O)NC(=O)NCCC2=CCCCC2)cc1 | -13%
13 | Cc1ccc(CN2C(=O)C(CC(C)C)Nc3ncnc(N4CCOCC4)c32)cc1 (stereo not drawn) | -8%
14 | COc1ccc([C@H]2C(C#N)=C([S-])N[C@](C)(O)[C@@H]2[n+]2ccccc2)cc1 | u
15 | COc1ccc(NC(=O)CC2C(=O)N(Cc3ccco3)C(=S)N2C(C)C)cc1 (stereo not drawn) | -23%
16 | CCC1Nc2ncnc(N3CCc4ccccc4C3)c2N(Cc2ccc(Cl)cc2)C1=O (stereo not drawn) | u
17 | Cc1ccc(-n2ncc(C(=O)Nc3cc(Cl)ccc3Cl)c2C2CCNCC2)cc1 | -4%
18 | CC[C@H](C)[C@H](NC(=O)[C@@H]1CCCN1C(=O)[C@H](Cc1cnc[nH]1)NC(=O)[C@H](CCCCNC(=O)[C@H](CCCN=C(N)N)NC(=O)OCc1ccccc1)NC(=O)[C@H](Cc1ccc(O)cc1)NC(=O)c1cccnc1)C(=O)O | -10%
19 | O=S(=O)(/C=C/c1ccccc1)Oc1ccccc1 | -17%
20 | COc1ccc(NC(=O)c2sc(=S)[nH]c2N)cc1 | 50µM*
21 | COc1ccc(C(=O)NCC(=O)OCc2cc(=O)n3nc(C4CCCCC4)sc3n2)cc1 | 10%
22 | COC(=O)C(NC(=O)c1ccccc1)=C1CCCCC1 | 6%
23 | COc1ccc(OC)c(NC(=O)CN2C(=O)c3ccccc3S2(=O)=O)c1 | -1%
24 | O=C(Cn1cncn1)N/N=C/c1cc([N+](=O)[O-])ccc1O | -16%
25 | NC(=O)CNC(=O)C1CCCc2c1[nH]c1ccc(Cl)cc21 (stereo not drawn) | 1%
26 | C#CCOCCOCCOCCNc1nc(N2CCN(C(=O)[C@H](CCC(=O)O)n3cc(C(N)Cc4ccc(O)cc4)nn3)CC2)nc(N2CCN(C(=O)[C@H](CCC(=O)O)n3cc(C(N)Cc4ccc(O)cc4)nn3)CC2)n1 (stereo partly drawn) | -4%
27 | CCN(CC)CCCN=Cc1c(O)n(-c2ccc(C)cc2)c(=O)c2ccccc12 | 10%
28 | CCOC(=O)c1cc2ccc3ccccc3c2oc1=O | -11%
29 | O=C(C1CC(=O)N(c2ccc(F)cc2)C1)N1CCOCC1 (stereo not drawn) | -9%
30 | CCCN(CCC)CCNC(=O)Cn1cnc2sc(C)c(S(=O)(=O)N3CCOCC3)c2c1=O | -8%
31 | Cc1ccc(S(=O)(=O)N2CCC3(CC2)OCCO3)c(C)c1 | -7%
32 | CC(C)C[C@@H](CNCC(=O)[C@H](CC(C)C)NC(=O)c1[nH]cnc1C(=O)N[C@@H](C)CN)NC(=O)c1nc[nH]c1C(=O)N[C@@H](CC(=O)O)C(=O)O | u
33 | CCOC(=O)c1c(C)[nH]c(C)c1S(=O)(=O)NCCc1sccc1C | -5%
34 | COc1cc(/C=N/NC(=O)c2ccc(NS(=O)(=O)c3cccs3)cc2)cc(OC)c1O | 2%
35 | COc1ccccc1CNC(=O)CN1C(=O)NC2(CCCCCC2)C1=O | -1%
36 | Cc1cc(Cl)ccc1NC(=O)CN1C(=O)C(=O)c2ccccc21 | -25%
37 | O=C(C1COc2ccccc2O1)N1CCN(c2ccc(C(F)(F)F)cn2)CC1 (stereo not drawn) | -12%
38 | CCCCn1c(C(C)O)nc2ccccc21 (stereo not drawn) | -10%
39 | COCCCN1CN=C(NS(=O)(=O)c2ccc(NC(C)=O)cc2)NC1 | -11%
40 | O=C(NC(=S)NC1CCCCCC1)c1cncc(Br)c1 | -12%
41 | O=C(CSc1cn(CC(=O)N2CCCCC2)c2ccccc12)NCc1ccc(F)cc1 | 3%
42 | CCOC(=O)c1c(C)oc2ccc(N(C(=O)Oc3ccccc3)S(=O)(=O)c3ccc(CC)cc3)cc12 | -15%
43 | Cn1c(=O)c(C(=O)Nc2ccccn2)c(O)c2ccccc21 | -13%
44 | CN(C)S(=O)(=O)c1ccc(NC(=O)Cn2c(-c3ccccc3)noc2=O)cc1 | 17%
45 | Cc1onc(-c2c(F)cccc2Cl)c1C(=O)Nc1cccc2nsnc12 | -18%
46 | Cc1ccccc1-c1nc(C#N)c(N2CCC(C)CC2)o1 | -1%
47 | c1csc(C2=NNC(=NC3CCCCC3)SC2)c1 | 10%
48 | O=c1c2c([nH]n1-c1ccccc1)CCCC2 | -10%
49 | CCCCCCSc1cc(-c2nc3ccc(C)cn3c2NCCCC)ccc1OC | -6%
50 | COC(=O)[C@]1(CC(C)C)N[C@H](c2ccc(-c3ccc(OC)cc3)cc2)[C@@H]2C(=O)N(C)C(=O)[C@@H]21 | -9%
51 | CCOc1ccc(NS(=O)(=O)c2ccc(C(=O)NCC(c3cccs3)N3CCOCC3)cc2)cc1 (stereo not drawn) | -18%
52 | COc1cc(C(O)P(=O)(OC(C)C)c2ccc(N(C)C)cc2)cc(OC)c1OC (stereo not drawn) | 0%
53 | CCN(CC)S(=O)(=O)c1ccc(C(=O)OCC(=O)NCc2ccco2)cc1 | 5%
54 | Cc1cccc(-n2ncc3c(NCCCN4CCCC4=O)ncnc32)c1 | 10%
55 | Cc1nc([N+](=O)[O-])c(Br)n1Cc1ccc(Cl)c(Cl)c1 | u
56 | CN1C(=O)/C(=C/c2ccco2)SC1=Nc1ccc(N2CCOCC2)cc1 | -15%
57 | CC1CCCN(C(=O)CN2CCC(c3nc4ccc(Cl)cc4[nH]3)CC2)C1 (stereo not drawn) | -28%
58 | COCCNS(=O)(=O)c1ccc(-c2ccc(Cl)cc2)cc1 | -13%
59 | Cc1ccc(CN(C(=O)c2ccccc2C)C2CCS(=O)(=O)C2)o1 (stereo not drawn) | 0%
60 | Cc1ccccc1NC(=O)Cc1nc(COC(=O)C(C)C)cs1 | 13%

Carrying on.
entry | compound | VDR inhibitor
61 | CN(Cc1ccccc1)C(=O)c1ccc(NC(=O)C2CCCN(C(=O)OC(C)(C)C)C2)cc1 (stereo not drawn) | 0%
62 | CC1=Nc2cc(C(=O)NCCc3ccc(Cl)cc3)ccc2Sc2c(C)ccc(C)c21 | -2%
63 | Cc1ccc(C)c(N=Cc2ccc(-c3ccc([N+](=O)[O-])cc3)o2)c1 | -1%
64 | COC(=O)CC1C(C)(C)C2(O)OC34CC2C(=O)[C@@]1(C)C3CC[C@]1(C)C4=CC(=O)OC1c1ccoc1 (stereo partly drawn) | -1%
65 | CCOc1ccc(OCC)c(S(=O)(=O)n2ccnc2C)c1 | -5%
66 | C=CCSc1nc2sc3c(c2c(=O)n1CC)CCC3 | -4%
67 | CCOC(=O)c1c(Nc2ccc(OCC)cc2)nnc(-c2ccccc2)c1-c1ccccc1 | -7%
68 | Cc1onc(-c2c(F)cccc2Cl)c1C(=O)OCc1nnc(-c2ccccc2)o1 | 3%
69 | Cc1ccc(-n2nc3c(N4CCC(C(=O)NCCc5cccs5)CC4)nnc(C)c3c2C)cc1 | -11%
70 | COc1ccc(N=C2C(=O)Nc3ccc(C)c(Br)c32)cc1 | u
71 | CC(=O)Nc1ccc(C(=O)NCC(=O)OCc2c(F)cccc2Cl)cc1 | -9%
72 | O=C(/C(=C/O)N=Nc1ccccc1)c1cccs1 | 8%
73 | COC(=O)c1c(NC(=O)CSc2n[nH]c(N)n2)sc(C)c1C | 13%
74 | O=c1c2ccccc2nnn1CSc1ccccc1F | -3%
75 | Cc1ccc(CC2(O)CC(C)N(C)CC2C)c(C)c1 (stereo not drawn) | -7%

Shown as labelled records: 4 of the compounds above
40. O=C(NC(=S)NC1CCCCCC1)c1cncc(Br)c1
  VDR inhibitor: -12%
41. O=C(CSc1cn(CC(=O)N2CCCCC2)c2ccccc12)NCc1ccc(F)cc1
  VDR inhibitor: 3%
42. CCOC(=O)c1c(C)oc2ccc(N(C(=O)Oc3ccccc3)S(=O)(=O)c3ccc(CC)cc3)cc12
  VDR inhibitor: -15%
43. Cn1c(=O)c(C(=O)Nc2ccccn2)c(O)c2ccccc21
  VDR inhibitor: -13%

Next results follow:
entry | compound | VDR inhibitor
76 | Nc1nccc(/C=C/c2c(Cl)cccc2Cl)n1 | 7%
77 | Cc1cccc(CN2CCC(CNC(=O)Nc3ccccc3F)CC2)c1 | -12%
78 | CCN1C(=O)C(CC(=O)Nc2c(C)cccc2C)SC1=Nc1ccc(S(N)(=O)=O)cc1 (stereo not drawn) | 2%
79 | O=C(COC(=O)c1ccccc1O)NC(=O)NCc1ccccc1 | -4%
80 | CC(C)C(NS(=O)(=O)c1cccs1)C(=O)NCc1ccc2c(c1)OCO2 (stereo not drawn) | -26%
81 | CC(C)CN1CCC(=O)N([C@H](CO)Cc2ccccc2)CC1 | 15%
82 | CCOP(=O)(c1ccc(N(C)C)cc1)C(O)c1c(Cl)cccc1Cl (stereo not drawn) | -10%
83 | COc1cc(/C=N/NC(=O)c2cccc(N3CCCC3=O)c2)ccc1O | 28%
84 | CC(NC(=O)Cc1cc(F)cc(F)c1)C(=O)NC(C(=O)OC(C)(C)C)c1ccccc1 (stereo not drawn) | -10%
85 | COc1cc(NC(=O)c2ccco2)c(OC)cc1NC(=O)c1cc(OC)c(OC)c(OC)c1 | -9%
86 | COc1ccccc1C(=O)COC(=O)Cc1n[nH]c(=O)c2ccccc12 | -11%
87 | COc1ccc(S(=O)(=O)N2CCN(c3ccccc3)CC2)cc1OC | 6%
88 | COc1ccc(S(=O)(=O)Cc2ccc(C(=O)N3CCN(C4CCCCC4)CC3)o2)cc1 | 8%
89 | CCN(C(=O)COC(=O)c1cc(=O)[nH]c2ccccc12)c1c(N)n(Cc2ccccc2)c(=O)[nH]c1=O | 7%
90 | CCSC1=NC(C)(C)C=C(C)N1 | 2%
91 | COc1ccc(Cl)cc1S(=O)(=O)N1CCCC(C(=O)NCC(N)=O)C1 (stereo not drawn) | 13%
92 | CCN1CCN(C(c2cccs2)C(C)NC(=S)NC2CCCCC2)CC1 (stereo not drawn) | 6%
93 | O=C(CCNC(=O)c1ccc(Cl)cc1)Nc1ccc(S(=O)(=O)N2CCCCC2)cc1 | 12%
94 | Cc1cccc(C(=O)N/C(=C\c2ccc(C)o2)C(=O)O)c1 | 5%
95 | Cc1ccnc2nc(C(=O)Nc3nnc(CC(C)C)s3)nn12 | 17%
96 | COC(=O)[C@@H]1C[C@]2(Br)c3ccccc3N(S(=O)(=O)c3ccccc3)[C@@H]2N1C(=O)OC | -11%
97 | CCc1cc(C(=O)N2CCCc3ccccc32)sc1C | -4%
98 | COc1ccc(S(=O)(=O)N2CCC(C(=O)N3CCCC3)CC2)cc1 | 12%
99 | COc1ccc(NC(=O)/C(Cl)=C(/Cl)S(=O)(=O)Cc2ccccc2)cn1 | 35µM*
100 | COc1ccc(/C=C2\C(=O)c3ccccc3OC2c2ccccc2)cc1 (stereo not drawn) | -1%
101 | COC(CN1C(=O)C(=O)/C(=C(/O)c2ccccc2)C1c1ccccn1)OC (stereo not drawn) | 11%
102 | Cc1c(NS(=O)(=O)c2cc(C(=O)NCCc3ccc(F)cc3)cc(Cl)c2Cl)c(=O)n(-c2ccccc2)n1C | u
103 | O=C(CSc1ccc2c(c1)OCCO2)NC(=O)Cc1ccccc1 | 9%
104 | Cc1ccc(C(=O)NCCSC2CCCCC2)cc1S(=O)(=O)Nc1ccccc1 | 7%
105 | COC(=O)c1ccc2c(=O)n(CCCCCC(=O)NCc3ccc4c(c3)OCO4)c(=O)[nH]c2c1 | -7%
106 | Cc1cccc(N(CC(=O)N/N=C/c2ccc(C(=O)O)cc2)S(=O)(=O)c2ccccc2)c1C | 5%
107 | Cc1ccc(NC(=O)c2cc(S(=O)(=O)N3CCC(C)CC3)cn2C)cc1Cl | 4%
108 | O=C1CN(C(=O)c2ccccc2Br)C(c2ccc(F)cc2)c2cc(F)ccc2N1 (stereo not drawn) | -16%
109 | Cc1ccccc1OCCC(=O)OCC(=O)Nc1ccc(N2CCOCC2)cc1 | -16%
110 | CCN(Cc1ccccc1)C(=O)c1oc2ccc(S(=O)(=O)N3CCOCC3)cc2c1C | 10%
111 | O=C(O)c1ccccc1Cc1ccccc1 | 4%
112 | Cc1oc2ccc(O)c(CN3CCC(C)CC3)c2c1C(=O)Nc1ccccc1 | -10%
113 | Cc1nn2c(NCc3cccnc3)c3c(nc2c1-c1ccccc1)CCC3 | 12%
114 | CC(C)(C)C(=O)Nc1ccc(Cc2ccncc2)cc1 | -15%

Part of the list above in order of molar mass, rising:
entry | compound | VDR inhibitor
111 | O=C(O)c1ccccc1Cc1ccccc1 | 4%
112 | Cc1oc2ccc(O)c(CN3CCC(C)CC3)c2c1C(=O)Nc1ccccc1 | -10%
107 | Cc1ccc(NC(=O)c2cc(S(=O)(=O)N3CCC(C)CC3)cn2C)cc1Cl | 4%

This is a subset, so the mix of outcomes need not match the whole.
